# INS promoter inh = TRM-6 insulin promoter activity inhibition. TRM-6 cells (human fetal islet line), insulin promoter-eGFP reporter, imaging; reporter expression induced with tamoxifen. inhibition, % at 2 µM. hit rate 0.9% among 130,000. AID 1273;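 active = inhibition above the mean plus 3 SD, with well images judged a real hit on visual review, cut at about 60% in these data, passing the limit was not always enough; inconclusive = inhibition over the cutoff but images rejected on review; inactive = inhibition not above the cutoff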
# HSV replic up = increases HSV replication in cells; AID 1956; HSV replication augmentation in cells, fold increase; hit rate 0.005% among 220,000; maximum fold increase;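 active = peak rise of 1.5-fold or more in the series; inconclusive = self-fluorescent or not available for retest; tested in PC3 cells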;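 also: first round at 10 µM; read as green reporter fluorescence; hits show the peak of a series up to 25 µM; 1 = signal of infected wells without compound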
# RGS16-Gao HTS = RGS16-Galphao interaction regulator (human); O15492+P09471; bead-based flow cytometry RGS16-Galphao binding, fluorescence; actives lie on both sides; binding response (% of control), % at 10 µM; hit rate 0.38% among 220,000;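 active = below 25% or above 175%, edge rows of some plates excepted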;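 also: Galphao activated by GDP with aluminum fluoride before binding; 100% = wells without compound and 0% = beads without RGS; some results beyond the cut were filed as inactive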
# Target sequence (O15492 whole entry, looked up): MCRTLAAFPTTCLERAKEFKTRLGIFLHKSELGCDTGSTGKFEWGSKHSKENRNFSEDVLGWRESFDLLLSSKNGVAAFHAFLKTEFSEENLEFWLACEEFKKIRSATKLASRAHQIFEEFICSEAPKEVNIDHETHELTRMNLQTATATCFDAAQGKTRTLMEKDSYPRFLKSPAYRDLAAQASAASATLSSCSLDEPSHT
# Target sequence (P09471 whole entry, looked up): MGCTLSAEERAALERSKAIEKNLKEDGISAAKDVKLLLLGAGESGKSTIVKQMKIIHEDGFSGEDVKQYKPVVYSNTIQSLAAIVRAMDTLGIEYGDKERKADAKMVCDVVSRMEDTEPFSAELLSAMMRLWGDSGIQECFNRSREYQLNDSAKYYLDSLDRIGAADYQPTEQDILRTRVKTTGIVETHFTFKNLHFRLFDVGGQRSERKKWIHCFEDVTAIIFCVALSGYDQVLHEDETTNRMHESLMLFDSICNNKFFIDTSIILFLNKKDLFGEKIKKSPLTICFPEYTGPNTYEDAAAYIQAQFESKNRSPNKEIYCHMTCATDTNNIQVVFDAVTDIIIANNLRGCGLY
# PKD1 kinase inh = PKD1 (human) kinase inhibition. Q15139. PKD1 kinase fluorescence polarization assay. inhibition, %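 (about 10 µM by stock and volumes)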. hit rate 0.056% among 200,000. AID 797;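 active = inhibition of 50% or more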;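 also: controls were vehicle for no effect and a reference inhibitor for full effect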
# GALR2 agonist = activates the human galanin receptor 2 | O43603 | activation, %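 (tested at 5 µM)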 | GALR2-expressing cells, agonist activation read-out | hit rate 0.48% among 140,000;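 active = above mean plus 3 SD of all compounds, about 5% in these data, not always enough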;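 also: 0% = vehicle buffer wells and 100% = reference agonist at full effect; tested in CHO reporter cells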
# Target sequence (O43603 whole entry, looked up): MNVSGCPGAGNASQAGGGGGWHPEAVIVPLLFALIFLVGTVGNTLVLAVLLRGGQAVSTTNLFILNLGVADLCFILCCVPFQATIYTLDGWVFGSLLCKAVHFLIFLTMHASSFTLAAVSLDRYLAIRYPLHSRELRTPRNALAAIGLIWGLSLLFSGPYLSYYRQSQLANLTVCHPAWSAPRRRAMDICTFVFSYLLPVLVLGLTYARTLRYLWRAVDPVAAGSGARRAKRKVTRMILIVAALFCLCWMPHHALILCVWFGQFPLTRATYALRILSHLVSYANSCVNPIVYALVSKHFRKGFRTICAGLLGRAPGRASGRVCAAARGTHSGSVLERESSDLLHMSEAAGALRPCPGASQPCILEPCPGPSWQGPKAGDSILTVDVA
# INS promoter inh cell count = further read-out of INS promoter inh, marked with its call; normalized cell count, %; measured here: cell count, toxicity; reference of the scale not given here;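 cells exposed to compound for 48 h; stained nuclei by imaging scaled within each plate; lower means fewer cells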
# HSV replic up primary fold = further read-out of HSV replic up, marked with its call; fold increase; compound at 10 µM; measured here: primary screen fold increase 10 uM; tested in PC3 cells;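 GFP signal in the first replicate; 1 = infected wells without compound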
# * marks the source's active call; other numbers are inactive results; i = inactive; ? = inconclusive; / = not tested or not shown.
SMILES,INS promoter inh,INS promoter inh cell count,HSV replic up,HSV replic up primary fold,RGS16-Gao HTS,PKD1 kinase inh,GALR2 agonist
COCCNc1nc(C)cc(-c2cc(C(=O)NCc3ccccc3)on2)n1,/,/,i,0.94,94,/,/
COCCCn1c(-c2ccc(OC)cc2)nc2nc3ccccc3nc21,/,/,i,1.1,106,-6,-0.9
COC(=O)c1sc(-c2ccc(Cl)cc2)cc1NC(=O)/C=C/C(=O)O,/,/,i,0.89,93,/,/
COc1ccc(NC(=O)Cc2nnc(N)s2)cc1,/,/,i,0.99,98,-1,/
O=C(O)c1ccccc1C(=O)N1CCc2c([nH]c3ccccc23)C1C(F)(F)F (configuration not stated),/,/,i,0.85,82,/,/
CN(C(=O)c1ccc(Cl)cc1)C1=CCCCC1CCC#N (configuration not stated),/,/,i,0.95,109,0,-0.9
NC(=O)C1CCN(C(=S)NCCc2ccccc2)CC1,/,/,i,0.92,97,-7,/
COc1ccc(OC)c(NC(=S)NCCC(c2ccccc2)c2ccccc2)c1,30,86,?,/,/,-8,0.0
COCCCNC(=O)C1CCC(=O)N1Cc1ccccc1Cl (configuration not stated),/,/,i,1,93,0,-1.1
FC(F)(F)c1cccc(CNC(=S)Nc2ccccc2)c1,/,/,i,0.98,117,-2,/
CCCN(CCC)C(=O)CC(c1ccccc1)c1cc(Br)ccc1O (configuration not stated),-57,67,i,0.75,113,-6,-2.0
CN(C)c1nnnn1-c1ccccc1Oc1ncc(C(F)(F)F)cc1Cl,-100,47,i,1,90,5,/
O=C(CSc1nnc(Cc2ccccc2)n1-c1cccc(Cl)c1)NNC(=O)Cc1ccccc1,28,103,i,1.1,104,0,0.7
COc1ccc(-c2csc(N3CCC(c4ccccc4)CC3)n2)cc1,/,/,i,1.1,101,-6,/
CC1(C)Cc2c(C#N)c(N)n(-c3ccccc3)c(=O)c2CO1,4,61,i,0.8,101,-9,-0.7
CCOc1cccc(C(=O)NC(=S)Nc2ccccc2)c1,6,161,i,1,98,2,-0.5
CCOC(=O)Cc1c(C)c2c(C)[nH]nc2oc1=O,-50,62,i,0.95,98,4,-0.7
CCC(C)(C)NC(=O)CN(C(=O)c1snc(C(N)=O)c1N)c1ccc2c(c1)OCCO2,29,49,i,1,97,-3,-0.5
CC(C)NC(=O)c1ccc(S(=O)(=O)N(C)C)cc1,-14,86,i,1,95,-1,/
N#CCSc1nnc(COc2cccc3ccccc23)n1-c1ccccc1,0,81,i,0.86,97,-6,-0.2

# Filtered by structure, the entries above containing a halogen
SMILES,INS promoter inh,INS promoter inh cell count,HSV replic up,HSV replic up primary fold,RGS16-Gao HTS,PKD1 kinase inh,GALR2 agonist
COC(=O)c1sc(-c2ccc(Cl)cc2)cc1NC(=O)/C=C/C(=O)O,/,/,i,0.89,93,/,/
O=C(O)c1ccccc1C(=O)N1CCc2c([nH]c3ccccc23)C1C(F)(F)F (configuration not stated),/,/,i,0.85,82,/,/
CN(C(=O)c1ccc(Cl)cc1)C1=CCCCC1CCC#N (configuration not stated),/,/,i,0.95,109,0,-0.9
COCCCNC(=O)C1CCC(=O)N1Cc1ccccc1Cl (configuration not stated),/,/,i,1,93,0,-1.1
FC(F)(F)c1cccc(CNC(=S)Nc2ccccc2)c1,/,/,i,0.98,117,-2,/
CCCN(CCC)C(=O)CC(c1ccccc1)c1cc(Br)ccc1O (configuration not stated),-57,67,i,0.75,113,-6,-2.0
CN(C)c1nnnn1-c1ccccc1Oc1ncc(C(F)(F)F)cc1Cl,-100,47,i,1,90,5,/
O=C(CSc1nnc(Cc2ccccc2)n1-c1cccc(Cl)c1)NNC(=O)Cc1ccccc1,28,103,i,1.1,104,0,0.7

# The list goes on.
SMILES,INS promoter inh,INS promoter inh cell count,HSV replic up,HSV replic up primary fold,RGS16-Gao HTS,PKD1 kinase inh,GALR2 agonist
Cn1c(-c2ccc(N)cc2)nc2ccccc21,-33,111,i,1.1,103,-6,-0.5
CC(C)NC(=O)NC(=O)CSc1nnc(COc2ccccc2Cl)o1,-29,115,i,0.9,121,-8,-1.8
CCc1cccc(C)c1NC(=O)c1ccc(CN2CCc3ccccc3C2)cc1,41,100,i,0.93,60,-11,-0.6
CN(C(=O)CO/N=C/c1ccc(Cl)cc1)c1ccccc1,/,/,i,0.97,94,-3,/
O=C(NCc1cccnc1)c1ccccn1,-74,161,i,0.7,101,-13,-2.4
CN1CCN(NC(=O)CN(C)S(=O)(=O)c2cc(Cl)ccc2Cl)CC1,/,/,i,0.92,99,-2,/
Cc1ccc2nc(C3CCCN(C(=S)Nc4cccc(C)c4C)C3)[nH]c2c1 (configuration not stated),-20,96,i,0.67,89,8,-2.2
Cc1ccc(NS(=O)(=O)c2cc3c4c(cccc4c2)C(=O)NC3=O)cc1C,/,/,i,1.2,95,/,/
O=C(C1CCCN(S(=O)(=O)c2ccc(Cl)cc2)C1)N(Cc1cccs1)C1CC1 (configuration not stated),-44,91,i,1.1,109,-11,-0.5
O=C(Cn1c(=O)oc2ccccc21)N1CCOCC1,/,/,i,1,97,-9,/
CC(C)(C)NC(=O)CSC(=Nc1ccccc1F)NC#N,-34,130,i,1.1,109,-4,-1.3
CC(C)C(=O)Nc1nc2cc3c(cc2s1)OCO3,/,/,i,0.97,105,8,-2.5
CC1CCCN(CC(O)COCc2ccccc2)C1 (configuration not stated),/,/,i,0.99,97,-10,/
CCOC(=O)C1(CCCc2ccccc2)CCN(C(=O)c2cnn(CC)c2)CC1,-62,94,i,0.96,104,-7,/
COc1ccccc1N1CCN(C(=O)Nc2cccc(Cl)c2)CC1,-17,132,i,0.85,101,0,-0.4
CCc1ccc(/C=C2/SC(N3CCOCC3)=NC2=O)cc1,/,/,i,0.78,95,/,/
CCn1c(CSc2nnc(-c3ccc4c(c3)OCO4)o2)nc2cc(S(=O)(=O)N(C)C)ccc21,16,107,i,0.77,100,-2,-0.6
CCCNc1nc2c(c(=O)[nH]c(=O)n2C)n1Cc1cccc(Br)c1,/,/,i,0.98,103,5,-1.3
O=C(NNC(=S)NC1CC2C=CC1C2)c1cccnc1 (configuration not stated),/,/,i,1,95,/,/
FC(F)(F)c1cc(Cl)c2nnc(-c3cccnc3)n2c1,/,/,i,0.98,98,-4,/
COC(=O)c1ccccc1NC(=O)CN(CCc1ccccc1)S(C)(=O)=O,-78,58,i,0.98,104,-10,-0.2
NC(=O)Nc1ccc2c(c1)OCCO2,/,/,i,0.98,97,1,-0.6
Cc1cccc(NC(=O)c2cccc(NS(=O)(=O)c3ccc(Cl)cc3)c2)c1,-10,131,i,1.2,29,-4,-3.2
Cc1ccc(-n2cc(C(=O)c3ccc4ccccc4c3O)cn2)cc1,11,79,i,0.86,101,9,-1.1
Cc1ccc2nc3c(cc(C#N)c(=N)n3CCCN3CCOCC3)c(=O)n2c1,33,96,/,/,/,5,-1.2
O=C1c2ccccc2-c2c1cccc2C(=O)N1CCOCC1,i,49,i,1.1,109,0,-1.7
CCN(CC)c1ccc(NC(=O)CCCOc2cccc(C)c2)cc1,31,113,i,0.99,96,4,/
COCc1nc2sc(C)c(C)c2c(=O)[nH]1,67,116,i,0.82,100,-7,-2.8
O=C(Cc1ccc(Cl)cc1)NCCCn1ccnc1,38,98,i,0.84,106,6,-1.1
O=C(NCc1ccccc1)C(=O)NCC1OCCN1S(=O)(=O)c1cccs1 (configuration not stated),24,130,i,0.72,/,-10,-0.1
c1ccc(-c2nnc(N3CCN(c4ccccn4)CC3)c3ccccc23)cc1,38,129,i,0.88,99,-11,-0.7
COC(=O)c1ccccc1NC(=O)c1noc2c1CCC2,/,/,i,1.1,92,/,/
O=C(Nc1cc(Sc2ccccn2)cc([N+](=O)[O-])c1)c1cccc(Cl)c1,17,96,i,0.91,105,3,-0.7
N#CC1=C(N)Oc2cc(O)c(C=Nc3ccccc3)cc2C1c1ccccc1 (configuration not stated),/,/,i,1.1,96,-4,-0.2
CCCCNC(=O)c1onc(CSc2ccccc2CC)c1C(=O)O,-5,35,i,0.83,103,-6,-0.5
CN(C)S(=O)(=O)c1ccc(C(=O)Nc2ccccc2C(=O)O)cc1,-53,121,i,1.1,107,-9,-1.6
Cc1nc(Nc2ccc(S(N)(=O)=O)cc2)oc1C,/,/,i,1.1,100,7,-2.6
Cc1nn(C(C)c2nc(-c3ccccc3)no2)c(C)c1[N+](=O)[O-] (configuration not stated),/,/,i,0.86,103,-9,-0.4
O=C(CCNS(=O)(=O)c1cccc2nonc12)NCCc1ccc(Cl)cc1,/,/,i,0.69,105,5,-0.6
Cc1cc(NC(=O)Cn2cc([N+](=O)[O-])cn2)n(Cc2ccc(F)cc2)n1,58,89,i,1.1,45,2,/
COc1ccc(-n2nc(C(=O)Nc3ccc(OC)c(OC)c3)c3c4ccccc4n(C)c3c2=O)cc1,i,59,i,1,76,-2,-0.3
CCCCc1c(O)nc(SCC(=O)NCCc2ccc(OC)c(OC)c2)[nH]c1=O,3,86,i,0.88,102,-2,-3.5
CC(=O)NC(CC(=O)O)c1ccccc1 (configuration not stated),/,/,i,1.1,106,/,/
Cc1ccc2cc3cc(C(=O)NCCC(C)C)oc3nc2c1,0,75,/,/,105,9,-0.3
NC(=O)c1c(NC(=O)C2CCCO2)sc2c1CCCCC2 (configuration not stated),-6,79,i,0.83,76,-6,-1.7
Cn1c(SCc2nnc(-c3ccc(F)cc3)o2)nnc1C1COc2ccccc2O1 (configuration not stated),/,/,i,0.92,102,-12,-1.5
CN1C2=NCCN2C(=O)c2ccccc21,27,116,i,1.3,111,0,-2.6
COc1cc(-c2nnc(SCc3cc(=O)oc4cc(C)ccc34)o2)cc(OC)c1OC,/,/,i,0.91,150,-13,0.7
CCOc1ncccc1C(=O)Nc1ccc(F)c(F)c1,58,84,i,0.98,98,-2,/
COc1ccc(-c2nc(N3CCOCC3)nc3n[nH]c(N)c23)cc1,-22,65,i,0.91,104,8,-1.4

# 2 compounds drawn at random from the list so far:
SMILES,INS promoter inh,INS promoter inh cell count,HSV replic up,HSV replic up primary fold,RGS16-Gao HTS,PKD1 kinase inh,GALR2 agonist
CCOc1ncccc1C(=O)Nc1ccc(F)c(F)c1,58,84,i,0.98,98,-2,/
CN1C2=NCCN2C(=O)c2ccccc21,27,116,i,1.3,111,0,-2.6

# Going on with the list:
SMILES,INS promoter inh,INS promoter inh cell count,HSV replic up,HSV replic up primary fold,RGS16-Gao HTS,PKD1 kinase inh,GALR2 agonist
CCCC(Oc1ccc(Br)cc1)c1nc2c3cc(OC)c(OC)cc3nc(=S)n2[nH]1 (configuration not stated),/,/,i,0.99,107,3,/
CC(C)OP(=O)(c1ccc(N(C)C)cc1)C(Nc1ccccc1)c1cccnc1 (configuration not stated),-6,86,i,1,105,11,0.3
Cc1ccc(-c2nc(N3CCOCC3)sc2C(=O)N2CCOCC2)cc1,-151,97,i,1.1,107,-10,0.2
Cc1nc(-c2cc(C#N)c(Sc3cccc(C(F)(F)F)c3)nc2C)cs1,/,/,i,0.85,100,/,/

# Screening data: PubChem, several laboratories
